From PubChem
NPYLR7 ag = mosquito NPYLR7 agonism; actives 0.15% (n = 270,000); activation, % at 10 µM; HEK293T NPYLR7/Galpha15, GCaMP6s calcium fluorescence; AID 1259423; in the data active = activation above about 40%;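 note: 0% = vehicle and 100% = reference agonist at the receptor; some compounds past the cut are filed as inactive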
NPYLR7 ag max-min = further read-out of NPYLR7 ag, marked with its call; activation, %; measured here: Max-Min RFU normalised activation; some inactives read as strong as hits;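 span of the calcium signal over five minutes; 0% = vehicle and 100% = native peptide agonist; compound fluorescence can raise it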
* marks the source's active call; other numbers are inactive results; & = joins results of further samples. This is a subset, so the mix of outcomes need not match the whole.

SMILES | NPYLR7 ag | NPYLR7 ag max-min
COC(=O)C1CCN(C(c2ccccc2F)C2Sc3nc(-c4ccco4)nn3C2=O)CC1 (stereo not drawn) | -1 | 0
COc1ccc2c(c1)CCc1cc(CCC(=O)NCCCOC(C)C)n(CCc3cccc(F)c3)c1-2 | 0 | -1
CCOC(=O)N1CCN(C(=O)c2csc(CSc3nnc(-c4ccncc4)n3-c3ccccc3OC)n2)CC1 | -7 | 1
CC(C)N(Cc1cc(NC(=O)C2CCCC2)ccc1N(C)C)C(=O)C1CC1 | 1 | 2
CCc1nc(CC)n(CC(=O)N(C2CCCCC2)C2CCCCC2)n1 | 12 | 9
Cc1cc(C(=O)Nc2nc3c(F)cc(F)cc3s2)nn1C | -7 | -7
CN(Cc1cccc(C(F)(F)F)c1)C(=O)CC1C(=O)NCCN1Cc1ccccc1 (stereo not drawn) | -2 | -4
Cc1nn(C)c(C)c1C(=O)C(=O)O | 7 | 5
Clc1cc(Cl)cc(N=Cc2ccc3c(c2)OCO3)c1 | -9 | -9
C=C(C#N)C(O)c1ccc(-c2ccccc2)cc1 (stereo not drawn) | 11 | 7
COc1cccc(NC(=O)C2CC=CCC2C(=O)N2CCc3c([nH]c4ccccc34)C2)c1 (stereo not drawn) | -5 | -11
CC1=C(C(=O)Nc2ccccc2C)C(c2cccs2)NC(=O)N1 (stereo not drawn) | -13 | -18
CCc1cnc(C)nc1N1CCNC(C(=O)N2CCCC2)C1 (stereo not drawn) | 0 | -2
Cc1cc(C)nc(NS(=O)(=O)c2ccc(NC(=O)c3ccc(NC(=O)C(F)(F)F)cc3)cc2)n1 | 11 | 8
CN(C)Cc1c(O)ccc2c(=O)c(-c3ccon3)coc12 | -3 | -6
O=C(c1ccc2c(c1)OCO2)N1CCC(n2cnc3cc(C(F)(F)F)ccc32)CC1 | -4 | -7
CCC(CC)C(=O)Oc1ccc(C)cc1C | 5 | 10
Cc1ccc(NC(=O)N2CCCN(c3nc(Cc4ccc(Cl)cc4)ns3)CC2)cc1 | -8 | 1
CCCn1c(N)c(C(=O)CSc2nncn2C(C)C)c(=O)[nH]c1=O | 2 | 7
Cc1nn(-c2ccccc2)c(Oc2ccc(Cl)cc2)c1CN(CC(C)O)C(C)C (stereo not drawn) | 19 | 23
Cc1cc(SCC(=O)OCc2ccccc2)nc(=O)[nH]1 | 1 | 0
O=C1NC2(CCN(C(=O)Nc3ccc(C(F)(F)F)cc3)CC2)Nc2cc(Cl)ccc21 | -1 | 8
CN(C)CCN(Cc1ccccc1)C(=O)c1cc(-c2ccc([N+](=O)[O-])cc2)nn1-c1ccccc1Cl | 7 | 17
O=C1CC2(CCN(C(=O)c3cccc(Oc4ccccc4)c3)CC2)CN1 | 3 | 2
O=C(NC1CC1)C1CCN(C2CCN(Cc3cccc(OC4CCCC4)c3)CC2)CC1 | 7&-4 | 6&-8
(cont.)
SMILES | NPYLR7 ag | NPYLR7 ag max-min
O=c1cc(N2CCN(c3ccccc3F)CC2)[nH]c(=O)n1-c1ccccc1Cl | 7 | 9
Cc1cccc(C)c1OCCn1c(CO)nc2ccccc21 | -10 | -11
CCOCCOC(=O)C(C)Sc1n[nH]c(=O)[nH]c1=O (stereo not drawn) | 5 | 2
CC(=O)Nc1ccc(C)c(S(=O)(=O)N2Cc3ccccc3CC2C(=O)N2CCCC2)c1 (stereo not drawn) | 0 | -3
ClC(=Cc1ccc(Cl)cc1)c1nc2ccccc2c2ccccc12 | 0 | -3
CCN(CC)S(=O)(=O)c1ccc(OC)c(N2CCN(S(=O)(=O)c3ccc(NC(C)=O)c(Cl)c3)CC2)c1 | 26 | 16
CCOC(=O)/C=C/c1c([N+](=O)[O-])sc(Br)c1Br | 0 | 1
CCOCCCNC(=O)c1cc(NC(=O)Nc2c(Cl)cccc2Cl)ccc1N1CCC(Cc2ccccc2)CC1 | -12 | -11
COc1ccc(-c2csc(=Nc3ccccc3)n2CC2CCCO2)cc1 (stereo not drawn) | -5 | -7
CC(Oc1ccccc1F)c1nnc(SCC(=O)N2N=C(c3cccs3)CC2c2ccco2)o1 (stereo not drawn) | 5 | 14
COc1ccc(C2Nc3ccccc3C(=O)N2c2ccc(Cl)cc2)cc1CSc1ccccn1 (stereo not drawn) | 0 | 1
CCCCn1c(N)c(N(CC(C)C)C(=O)CCl)c(=O)[nH]c1=O | -2 | -10
Cc1cccc(Cn2cnc3c(nnn3-c3cccc(C)c3)c2=O)c1 | -2 | -6
Cc1cc2ccccc2n1CCNC(=O)C12CC3CC(CC(C3)C1)C2 | 0 | -3
O=C1CCc2cc(OCC(=O)N3CCN(S(=O)(=O)c4ccccc4Cl)CC3)ccc2N1 | -14 | -15
CCn1c(=O)n(CCC(=O)NCc2ccccc2CN(C)C)c2ccccc21 | 0 | 0
Cc1cccc(-c2ccc(C(=O)N3CCCC3)cn2)c1C | 0 | 2
COc1ccc(OC)c(Nc2nc(-c3cc4ccccc4oc3=O)cs2)c1 | 8 | 7
Cc1ccc(NC(=O)CC(=O)NC(c2ccncc2)c2ccccc2C)cc1 (stereo not drawn) | 1 | -8
CN(CCOc1ccccc1)Cn1ncn(-c2ccccc2)c1=S | -4 | -6
COc1ccc(-n2nnc3c(=O)n(CC(=O)NC4CCCC4)cnc32)cc1 | 2 | 4
COc1ccc(/C=N\N2CCN(C)CC2)c(OC)c1OC | -2 | -2
O=C1CN2NC(=S)N(c3ccc(Cl)cc3)C2=CN1c1ccc(Cl)cc1 | 1 | 6
Cc1ccc(OCc2nc(CN(C(=O)C3CC3)C3CC3)cs2)cc1C | 16 | 10
O=C(NCc1nc2ccccc2s1)Nc1cccc(CN2CCCC2=O)c1 | 4 | 3
Next records.
SMILES | NPYLR7 ag | NPYLR7 ag max-min
COc1ccc(-c2nc3sc(CCNC(=O)c4ccc(C(C)(C)C)cc4)c(C)n3n2)cc1 | 5 | 3
Cc1ccc(-c2nc(CN3CCCCC3c3nccn3C)c(C)o2)o1 (stereo not drawn) | 2 | 1
CCOC(=O)c1coc(N2C[C@H](O)[C@@H](N3CCOCC3)C2)n1 | 12 | 11
Cc1ccc(-n2nc(-c3ccccc3)cc2NC(=O)CN(CC(C)C)C(=O)NCc2ccccc2)c(C)c1 | 16 | 16
CCOc1ccc(-n2nnnc2CN2CCN(C(C)=O)CC2)cc1 | 0 | 0
COc1ccc(NC(=O)N2CCCOCC2)cc1Cc1ccccc1 | -20 | -25
CSC1CCCCC1(O)CSc1nc2c(cc1C#N)CCCC2 (stereo not drawn) | 4 | 2
Cc1ccccc1C=Nn1c(C)cc(C)c(C#N)c1=O | -7 | -13
CCn1c(SCc2cc3c(cc2Cl)OCO3)nnc1-c1c2c(nc3ccccc13)CCC2 | 1 | 12
O=C(c1csc(CSc2nnc(-c3ccncc3)n2-c2ccccc2F)n1)N1CCC(Cc2ccccc2)CC1 | 17 | 21
Cc1nc(C(=O)NC2CC(=O)N(CCCc3ccccc3)C2)cs1 (stereo not drawn) | 22 | 10
CSc1ccc(-c2nccn2C2CCN(Cc3ccncc3)CC2)cc1 | 4 | 3
Cc1cnc(SCCN2CCOCC2)nc1C1CCCN(C(=O)c2ccc3c(c2)OCO3)C1 (stereo not drawn) | 13 | 0
COc1ccc(-c2cnc(-c3cccc(CNC(=O)c4ccc(F)c(F)c4)c3)[nH]2)cc1 | 3 | 8
Cc1ncsc1CCn1nc(C(=O)NC2CC2)c2c1CCN(C(=O)c1cc3ccccc3o1)C2 | 22 | 6
O=C(CCCCl)NC1=C(Cl)C(=O)c2ccccc2C1=O | -6 | -13
CCCNC(=O)c1cn(CC)cc2c(=O)n(-c3ccccc3)nc1-2 | 4 | 2
Oc1cc2c(cc1O)C(c1c(F)cccc1F)NCC2 (stereo not drawn) | 3 | -1
CCCCNC(=O)C1(C)CCN1C(=O)c1ccc(C(F)(F)F)nc1C (stereo not drawn) | 5 | 1
CCCc1c(C)nn(-c2ccc(C(=O)NCCCc3ccccc3)cc2)c1C | -10 | -16
CC(C)(NC(=O)NCc1ccccn1)c1ccc2c(c1)OCO2 | 3 | -1
COc1cc(OC)cc(-c2onc(C)c2C(=O)NCCCn2ccnc2)c1 | -2 | -1
CC1CCC2(CC1)OCC(C(=O)NCc1cccnc1)N2C(=O)c1ccccc1Cl (stereo not drawn) | 5 | 18
CNC(=O)CN1C(=O)CCN(C(=O)CC2CCCC2)CC(OC)c2ccccc21 (stereo not drawn) | 0 | 2
Cc1cc(S(=O)(=O)N2CCN(CCO)CC2)ccc1Cl | -1 | -2

Filtered by structure: the entries above with two or more sulfur atoms (5)
SMILES | NPYLR7 ag | NPYLR7 ag max-min
CCOC(=O)N1CCN(C(=O)c2csc(CSc3nnc(-c4ccncc4)n3-c3ccccc3OC)n2)CC1 | -7 | 1
CCN(CC)S(=O)(=O)c1ccc(OC)c(N2CCN(S(=O)(=O)c3ccc(NC(C)=O)c(Cl)c3)CC2)c1 | 26 | 16
CC(Oc1ccccc1F)c1nnc(SCC(=O)N2N=C(c3cccs3)CC2c2ccco2)o1 (stereo not drawn) | 5 | 14
CSC1CCCCC1(O)CSc1nc2c(cc1C#N)CCCC2 (stereo not drawn) | 4 | 2
O=C(c1csc(CSc2nnc(-c3ccncc3)n2-c2ccccc2F)n1)N1CCC(Cc2ccccc2)CC1 | 17 | 21

Profiles as entered above. Values in the order: NPYLR7 ag, NPYLR7 ag max-min
CNC(=O)CN1C(=O)CCN(C(=O)CC2CCCC2)CC(OC)c2ccccc21 (stereo not drawn) across the screens: 0, 2
Cc1nn(C)c(C)c1C(=O)C(=O)O across the screens: 7, 5
CCn1c(=O)n(CCC(=O)NCc2ccccc2CN(C)C)c2ccccc21 across the screens: 0, 0

The listing continues.
SMILES | NPYLR7 ag | NPYLR7 ag max-min
CC(C)c1cc(C(=O)N2CCc3nc(N)sc3C2)n(C)n1 | 5 | 3
CCOC(=O)c1ccc(N=C2SC(C(=O)NCCc3ccccc3)CC(=O)N2C)cc1 (stereo not drawn) | 5 | 4
Cc1c(C(=O)NC(c2ccccc2)c2nccn2C)oc2ccc(F)cc12 (stereo not drawn) | 2 | 4
CCOc1ccc(-n2nnnc2CNC(=O)Cc2cccs2)cc1 | 4 | 2
Cc1ccc(C#N)cc1NC(=O)C1CCCCN1C(=O)C1CCCO1 (stereo not drawn) | 6 | 4
Cc1ccc(F)cc1NC=C1C(=O)OC2(CCCCC2)OC1=O | 0 | 2
O=C(c1ccc2snnc2c1)N1CCN(Cc2cccc(-c3noc(-c4cccnc4)n3)c2)CC1 | 2 | 0
Cc1cc2c(c(=O)[nH]1)C(=O)NC2 | 3 | 10
O=C1NC(c2ccc(OCC3CCCO3)cc2)Nc2ccccc21 (stereo not drawn) | -4 | -3
CN(C)S(=O)(=O)c1ccc2nnn(OCCOc3cccc(Cl)c3)c2c1 | 2 | 6
CCC(=O)C(C)Sc1nnnn1-c1cc(OC)ccc1OC (stereo not drawn) | 3 | 1
CCOc1ccc(/C=C2N=C(/C=C\c3cccc([N+](=O)[O-])c3)OC/2=O)cc1 | -2 | -6
COc1ccc(CNC(=O)Cn2nc(C(F)(F)F)c(Cl)c2C)cc1 | -10 | -12
CCN(CC)CCCNC(=O)c1cc(N(C)C2CCCCC2)nc2ccccc12 | 6 | 1
N#Cc1ccc(Oc2cccc(-n3cncn3)c2)nc1 | 0 | 14
O=C(CCc1ccccc1)N1CCC(Nc2ccc3nnnn3n2)CC1 | 11 | 8
CC(NS(=O)(=O)Cc1ccccc1)c1cccc(N2CCCS2(=O)=O)c1 (stereo not drawn) | 4 | 5
Cc1ccc(-c2cc(C(=O)N3CCOCC3)c3ccccc3n2)cc1 | -10 | -15
COC(=O)C1CCN(C(=O)c2cc(Cn3ccc4ccccc43)[nH]n2)CC1 | 1 | -1
CN(C)c1ccc(CC(=O)N2CCC(n3cnc4ccccc43)CC2)cc1 | 30 | 21
COc1ccc(-c2cc(CC(=O)NCc3ccco3)no2)cc1OC | 9 | 9
CCOc1cc(N2CCN(C)CC2)ccc1NC(=O)Cc1ccccc1Br | 1 | 17
COc1ccc(CNC(c2ccccc2)c2n[nH]c(C)n2)cc1 (stereo not drawn) | 0 | 5
O=C(CN1C(=O)CSC(c2ccc(F)cc2F)c2c(-c3ccccc3)nn(-c3ccc(F)cc3)c21)NCc1ccco1 (stereo not drawn) | 10 | 2
O=C(c1cc2ccsc2n1Cc1ccccc1F)N1CCN(Cc2ccc3c(c2)OCO3)CC1 | 1 | 5
CCOc1ccccc1OS(=O)(=O)c1ccc(C(N)=O)cc1 | 1 | -2
Cc1nc(C(=O)N(c2cccc(C(F)(F)F)c2)C(C)C2CC2)cs1 (stereo not drawn) | -4 | 410
CCc1nc2ccc(C(=O)NCc3ccc4c(c3)OCO4)cn2c1N(C)Cc1nccs1 | -5 | -6
CC(=O)c1c(C)[nH]c(C(=O)CSc2nc3sc4c(c3c(=O)[nH]2)CCCC4)c1C | -6 | -15
Cc1cc(S(=O)(=O)N2CCCC(C(=O)c3sccc3C)C2)c(C)s1 (stereo not drawn) | 6 | 5

Some of the entries so far, with values under each structure:
Fields: NPYLR7 ag	NPYLR7 ag max-min
> Cc1cc2c(c(=O)[nH]1)C(=O)NC2
 : 3	10
> O=C(CN1C(=O)CSC(c2ccc(F)cc2F)c2c(-c3ccccc3)nn(-c3ccc(F)cc3)c21)NCc1ccco1 (stereo not drawn)
 : 10	2
> CCc1nc2ccc(C(=O)NCc3ccc4c(c3)OCO4)cn2c1N(C)Cc1nccs1
 : -5	-6
> CCOc1ccc(/C=C2N=C(/C=C\c3cccc([N+](=O)[O-])c3)OC/2=O)cc1
 : -2	-6
> COc1ccc(CNC(=O)Cn2nc(C(F)(F)F)c(Cl)c2C)cc1
 : -10	-12
> CN(C)c1ccc(CC(=O)N2CCC(n3cnc4ccccc43)CC2)cc1
 : 30	21
